ClpP mod: qHTS Assay for Activators of ClpP | ATP-dependent Clp protease proteolytic subunit (Bacillus subtilis (strain 168)), P80244 | purified B. subtilis ClpP, FRET peptide cleavage, 20 min | Potency, µM (doses to about 57.5 µM), for the others: at the top dose activity change, negative = active | 340,000 compounds, 1.9% hits | AID 651965, 2013; active = well fitted falling curve with a large enough effect; inconclusive = small, poorly fitted or top-dose-only effect; inactive = no such curve, though single readings can be large or run the other way; note: the source files actives as falling curves though it sought activators and does not explain the sign; nearly all actives have a fitted effect of over 65% in size; many hits overshoot -100%
Target sequence (P80244 whole entry, looked up): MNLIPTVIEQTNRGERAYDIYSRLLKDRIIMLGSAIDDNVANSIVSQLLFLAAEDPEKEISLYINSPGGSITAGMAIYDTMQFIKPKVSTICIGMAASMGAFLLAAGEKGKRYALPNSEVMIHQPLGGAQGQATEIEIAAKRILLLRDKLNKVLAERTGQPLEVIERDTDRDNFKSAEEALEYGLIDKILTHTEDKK
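Buffer: 100 mM Tris/HCl pH8, 100 mM KCl, 0.05% low protease BSA, 2.5% glycerol, 0.01% Tween-20. ClpP 10 microg/mL final; 20 min RT; delta FRET normalized to ADEP and DMSO controls.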
Active calls of the source: *; u = inconclusive. Potency is the fitted concentration of half-maximal effect.

SMILES | ClpP mod
CC(CCC(C)[n+]1cccc(C#N)c1)[n+]1cccc(C#N)c1 (stereo unspecified) | 0.3%
Cc1cccc(CCNC(=O)CN(c2ccc(C(C)C)cc2)S(=O)(=O)c2c(C)nn(C)c2C)c1 | 0.8%
COc1cccc2cc(-c3nc4sc(C(=O)Nc5ccc(F)cc5F)c(C)c4c(=O)[nH]3)c(=O)oc12 | -2.3%
Cc1oc2ncnc(N3CCCCC3)c2c1C(=O)N1CCN(c2cccc(C(F)(F)F)c2)CC1 | -0.3%
Cc1nn(-c2ccc(N3CCCC3)nn2)c(C)c1CCC(=O)NCc1ccc(F)cc1 | -2.3%
COc1ccccc1NC(=O)Cn1c(=O)n(Cc2nc(C)no2)c(=O)c2cc3c(cc21)OCO3 | u
CCN(CC)C(=O)Nc1ccc2c(c1)N(Cc1ccccc1)C(=O)c1ccccc1S2 | 2.0%
Cc1ccc(CNC(=O)c2ccc3c(c2)CCN3S(=O)(=O)c2ccc(Br)cc2)cc1 | -0.5%
Cc1cccc(NS(=O)(=O)c2ccc3c(c2)CCN3C(=O)C2CC2)c1C | 0.0%
COc1ccc(C(=O)Nc2nnc(SCc3cc(=O)n4cc(Cl)ccc4n3)s2)cc1 | -20%
O=C(CNC(=O)c1ccccc1Cl)OCc1cc(=O)n2ccsc2n1 | u
Cc1ccc2oc(C(=O)Nc3sc4c(c3C(=O)NCC3CCCO3)CCC4)cc(=O)c2c1 (stereo unspecified) | -0.4%
COc1cccc(CNC(=O)C2CCCN(c3nc4ccccc4n4cccc34)C2)c1 (stereo unspecified) | -11%
Cc1cc(OC(C)C(=O)N2CCN(CCc3ccccn3)CC2)ccc1Cl (stereo unspecified) | 0.1%
Cc1ccc2oc(=O)n(CCCOc3ccc(Cl)cc3)c2c1 | 1.1%
CCCc1ccc(OCC(=O)Nc2scc(-c3cccs3)c2C(=O)OC)cc1 | -2.8%
CSc1ncc2c(n1)-c1ccccc1N(Cc1ccc(F)cc1)S2(=O)=O | -1.1%
COC(=O)c1ccccc1NC(=O)Cn1c(=O)cc(-c2ccccc2)c2c(C)nn(C)c21 | -3.3%
CCOc1ccc(NC(=O)CC2C(=O)N(c3ccccc3)C(=O)N2C2CCCCC2)cc1 (stereo unspecified) | -0.2%
Cc1ccc(-c2csc(=Nc3ccccc3)n2Cc2ccc3c(c2)OCO3)cc1C | -0.6%
Cn1c(=O)c2c(-c3ccccc3Br)n(CCc3ccccc3)cc2n(C)c1=O | -16%
Cn1c(=O)c2sccc2n2c(CCC(=O)NCc3ccccc3Cl)nnc12 | -9.2%
O=C(CN1C(=O)CCn2nc(-c3ccccc3)cc21)NCc1ccc(F)cc1 | -0.6%
Cc1ccc(Cn2c(C(=O)O)c(CNC3CCCCCC3)c3ccc(C)cc32)cc1 | -1.7%
COc1ccc(-c2nc3ccc(NC(=O)COC(C)=O)cc3c(=O)n2Cc2ccccc2)cc1COc1ccc(NC(C)=O)cc1 | 107%
N#Cc1nc(N2CCCCC2)nc(N(c2ccccc2)c2ccccc2)n1 | u
Cc1nn(C)c2c1c(C(F)(F)F)cc(=O)n2CC(=O)N1CCC(C)CC1 | 3.8%
COc1ccc(OC)c(NC(=O)CN2CCCN(Cc3ccccc3Cl)S2(=O)=O)c1 | 1.4%
COc1ccc(OCC(=O)OCc2cc(=O)n3nc(C4CCCCC4)sc3n2)cc1 | u
Cc1ccc(-c2[nH]ncc2CNCc2ccc(CN(C)C)cc2)cc1 | 1.2%

2 consecutive compounds from above, for reference:
SMILES | ClpP mod
CCCc1ccc(OCC(=O)Nc2scc(-c3cccs3)c2C(=O)OC)cc1 | -2.8%
CSc1ncc2c(n1)-c1ccccc1N(Cc1ccc(F)cc1)S2(=O)=O | -1.1%

Going on with the list:
SMILES | ClpP mod
COc1ccc(CNC(=O)c2ccc(NC(=O)N3CCSc4ccccc43)cc2)cc1 | -1.3%
COc1ccc(-n2c(=O)c3c4c(sc3n(CC(=O)N3CCCCC3C)c2=O)CCC4)c(OC)c1 (stereo unspecified) | 0.5%
CCOC(=O)CNC(c1ccccc1)c1cc(Br)ccc1NC(=O)c1ccc(Cl)cc1 (stereo unspecified) | 3.8%
CCCNC(=O)c1ccc(-n2c(-c3ccccc3)cc3c2CCCCC3)cc1 | -3.5%
CCN(CC)C(=O)CSc1nc(-c2ccc(C)cc2)nc2c1Cc1c(CO)cnc(C)c1O2 | -0.7%
CC(=O)c1c(C)oc2c1cc(NS(=O)(=O)c1ccc(Cl)c(C)c1)c1ccccc12 | 8.3%
CCN1C(C(=O)c2ccccc2)=C(OC(=O)c2ccccc2OC)c2ccccc2S1(=O)=O | -2.5%
COc1cc(NC(=O)c2c(C)oc3c2C2=NCCN2C=N3)cc(OC)c1OC | -0.5%
O=C(C1CCCCC1)N(Cc1cccnc1)c1nc2ccc(Cl)cc2s1 | -0.5%
CCc1nn(CC(=O)NCCCOC)c(=O)c2cc3ccccc3n12 | u
Cc1ccc(NC(=O)Cn2nnc(-c3nc(-c4ccc(Cl)cc4)no3)c2N)cc1C | -2.6%
Cc1ccc(N2CCN(C(=O)Nc3cn(CC(C)C)c(=O)c4ccccc34)CC2)c(C)c1 | 3.6%
COC(=O)C1=C(C)N=C2SCCC(=O)N2C1c1ccc(OCc2ccccc2)c(OC)c1 (stereo unspecified) | -0.5%
COc1ccc(N2CCN(S(=O)(=O)c3ccc(-c4coc(C)n4)cc3)CC2)cc1 | 4.4%
Cc1ccc(C)c(CN2C(=O)c3ccccc3S(=O)c3ccc(C(=O)NCCC4=CCCCC4)cc32)c1 (stereo unspecified) | -0.6%
CN1CCc2c(sc3c2C(=O)NC(c2ccc(C(C)(C)C)cc2)N3)C1 (stereo unspecified) | 4.3%
Cc1ccc2nc(-c3ccc(Cl)c(NC(=O)COc4ccc(C(C)C)cc4)c3)oc2c1 | -19%
COc1ccccc1NC(=O)Cn1c(=O)n(-c2ccc(C)cc2)c(=O)c2ccc(C(=O)NCc3ccco3)cc21 | -7.7%
O=C(Nc1ccc(F)cc1F)c1ccc(-n2cnnc2)cc1 | -1.0%
CCn1c(=O)cc(SCC(=O)Nc2cc(Cl)ccc2OC)c2ccccc21 | -8.0%
COc1ccccc1N1CCN(c2ncnc3c2nc2n3CCCC2)CC1 | -2.1%
Cc1ccc(NC(=O)CN2C(=O)COc3ccc(S(=O)(=O)N4CCCCC4)cc32)cc1Cl | 1.2%
COc1ccc2oc(-c3cccc(NC(=O)c4ccc(C#N)cc4F)c3)nc2c1 | 4.5%
Cc1ccc(S(=O)(=O)c2cnc(SCC(=O)Nc3ccc4c(c3)OCCO4)[nH]c2=O)cc1Cl | 0.5%
Cc1cccc(Nc2nnc(-n3nc(C)cc3C)c3ccccc23)c1 | -0.7%
O=C(Nc1nnc(C2CC(=O)N(c3ccc(Cl)cc3)C2)s1)c1ccco1 (stereo unspecified) | 1.1%
CN(C)c1ccc(CNC(=O)Cn2c(=O)oc3cc(S(=O)(=O)N4CCCCCC4)ccc32)cc1 | 1.0%
Cc1cccc(C(c2sc3nc(-c4ccco4)nn3c2O)N2CCN(Cc3ccccc3)CC2)c1 (stereo unspecified) | 0.4%
Cc1ccc(C)c(NC(=O)CSc2ncc3c(n2)-c2ccccc2N(Cc2ccccc2C)S3(=O)=O)c1 | 19%
CCc1nn(CCCC(=O)N2CCN(c3cc(Cl)ccc3C)CC2)c(=O)c2cc3occc3n12 | -12%
CCCN1CNc2c(c(=O)[nH]c(=S)n2CCc2ccc(OC)cc2)C1 | 0.3%
O=C(c1ccccc1)N1CCCCC1CCN1CCCCC1 (stereo unspecified) | 3.2%
c1ccc2c(c1)sc[n+]2CCC1CCCCC1 | -3.5%
COc1ccccc1-c1cc(C(F)(F)F)nc(S(=O)(=O)CCCC(=O)Nc2cc(C)ccc2O)n1 | 4.0%
O=C(NCc1ccc(Cl)cc1)c1cnc2sc(N3CCOCC3)nn2c1=O | 4.4%
COc1ccc(CNC(=O)Cc2c(C)c3cc4c(C)coc4cc3oc2=O)cc1 | 10%
COc1ccc(NC(=O)Cn2c(=O)n(Cc3ccco3)c(=O)c3oc4ccccc4c32)cc1Cl | 1.3%
Cc1ccc(NC(=O)Nc2ccc3snnc3c2)cc1C | 0.0%
Cc1cccc(-c2noc(CSc3nc(-c4ccc(F)cc4)cc(=O)[nH]3)n2)c1 | 0.5%
Cc1cc(C)cc(C(=O)N2CC(=O)Nc3ccc(Br)cc3C2c2ccccc2)c1 (stereo unspecified) | -2.2%
COc1ccc(-c2nc3ccccc3n3c(-c4ccccc4)c4c(=O)n(C)c(=O)n(C)c4c23)cc1OC | -4.3%
COC(=O)c1sccc1S(=O)(=O)N(CC(=O)Nc1ccccc1C)c1ccc(Cl)cc1 | -2.9%
CCCN1CCN(c2ncnc3sc(C(=O)Nc4cccc(Cl)c4C)c(C)c23)CC1 | -0.8%
Cc1cccc(-c2nc(CS(=O)CC(=O)NCc3ccc(Cl)cc3)c(C)o2)c1 (stereo unspecified) | -2.6%
Cn1cc(S(=O)(=O)N2CCCCCC2)cc1C(=O)N1CCN(c2ccc(Cl)cc2)CC1 | -0.3%

5 compounds drawn at random from those above, as already listed:
SMILES | ClpP mod
Cc1ccc(NC(=O)Nc2ccc3snnc3c2)cc1C | 0.0%
Cn1cc(S(=O)(=O)N2CCCCCC2)cc1C(=O)N1CCN(c2ccc(Cl)cc2)CC1 | -0.3%
COC(=O)c1sccc1S(=O)(=O)N(CC(=O)Nc1ccccc1C)c1ccc(Cl)cc1 | -2.9%
Cc1cccc(-c2nc(CS(=O)CC(=O)NCc3ccc(Cl)cc3)c(C)o2)c1 (stereo unspecified) | -2.6%
COc1ccc(-c2nc3ccccc3n3c(-c4ccccc4)c4c(=O)n(C)c(=O)n(C)c4c23)cc1OC | -4.3%

Returning to the listing with the 6 entries that preceded the break.
SMILES | ClpP mod
Cc1cc(C)cc(C(=O)N2CC(=O)Nc3ccc(Br)cc3C2c2ccccc2)c1 (stereo unspecified) | -2.2%
COc1ccc(-c2nc3ccccc3n3c(-c4ccccc4)c4c(=O)n(C)c(=O)n(C)c4c23)cc1OC | -4.3%
COC(=O)c1sccc1S(=O)(=O)N(CC(=O)Nc1ccccc1C)c1ccc(Cl)cc1 | -2.9%
CCCN1CCN(c2ncnc3sc(C(=O)Nc4cccc(Cl)c4C)c(C)c23)CC1 | -0.8%
Cc1cccc(-c2nc(CS(=O)CC(=O)NCc3ccc(Cl)cc3)c(C)o2)c1 (stereo unspecified) | -2.6%
Cn1cc(S(=O)(=O)N2CCCCCC2)cc1C(=O)N1CCN(c2ccc(Cl)cc2)CC1 | -0.3%
COc1ccccc1CNC(=O)c1cc2cc(S(=O)(=O)N3CCCCC3)ccc2n1C | -13%
CS(=O)(=O)N1CCc2cc(C(=O)Nc3ccc(Cl)c(C(F)(F)F)c3)ccc21 | u
CCOc1ccc(CCNC(=O)c2ccc3c(c2)N(Cc2ccccc2)C(=O)c2ccccc2S3=O)cc1OCC (stereo unspecified) | -2.0%
Cc1cc(OCC(=O)N2CCC(c3nc4ccccc4s3)CC2)ccc1Cl | -1.7%
O=C(NCc1ccccc1Br)C1CCCN(C(=O)N2CCOc3ccccc32)C1 (stereo unspecified) | -3.3%
COc1ccc(C)cc1Nc1nc2ccccc2c2nnc(C)n12 | u
COc1ccc(OC)c(NC(=O)c2cc3c(s2)-c2ccccc2SC3)c1 | -17%
O=C(CSc1nc2ccccc2nc1Cc1ccc(Cl)cc1)N1CCCCC1 | -4.9%
CCCCOc1ccc(C(=O)Nc2onc3c2CCCC3)cc1 | 1.8%
COc1ccc(-c2nn(-c3ccccc3)cc2C2NC(=O)NC(C)=C2C(=O)OC(C)C)cc1OC (stereo unspecified) | -1.6%
CC(C)(C)c1ccc(OCC(=O)Nc2ccc(C(=O)OC3CCCCC3)cc2)cc1 | -1.0%
CC(=O)Nc1c(C)nn(-c2ccccc2)c1N1CCC(C(=O)Nc2ccc(Cl)cc2C)CC1 | -0.6%
CCOC(=O)c1cnc(N2CCN(c3cccc(C)c3C)CC2)c2ccccc12 | -20%
CCCSc1nnc(NC(=O)Cc2coc3cc(C)ccc23)s1 | -1.8%
Cc1nnc2c(N3CCN(c4ccccc4)CC3)nc3ccc(C(=O)c4ccccc4)cc3n12 | 0.5%
COC(=O)c1ccc(CN(Cc2ccc(OC)c(OC)c2)S(=O)(=O)c2cc(C(=O)Nc3cccc(C)c3)ccc2F)cc1 | -8.6%
CCc1ccc(OC(=O)CSc2nnc(-c3ccc(OC)c(OC)c3)o2)cc1 | -3.6%
COc1ccc(CCNC(=O)Cn2nnc(-c3ccc(Cl)cc3)n2)cc1OC | -1.4%
COc1ccc(N2CCN(C(=O)CCS(=O)(=O)c3cc(Br)cc4c3N(C(=O)C3CC3)CC4)CC2)cc1 | 1.4%
COc1ccc(C(=O)Nc2nnc(S(=O)(=O)N(C)c3ccc(Cl)cc3)s2)cc1OC | -28%
Cc1cccc(C2CC(=O)Oc3c2c(=O)n(C)c2ccccc32)c1 (stereo unspecified) | 4.1%
COc1ccc(-c2cc3nc(C)c(CCC(=O)N4CCN(c5cc(C)ccc5C)CC4)c(C)n3n2)c(OC)c1 | -6.9%
CSc1nc(C)cc(Nc2cccc(C(=O)O)c2)n1 | -0.8%
CCc1ccc2oc(-c3cccc(NC(=O)c4ccc(N5CCC(C)CC5)c([N+](=O)[O-])c4)c3)nc2c1 | -0.2%
CC1=C(C(=O)Nc2cccnc2)C(c2cccc(F)c2)n2nc(SCc3ccccc3F)nc2N1 (stereo unspecified) | -13%
Cc1ccccc1OCCSc1nc2ccc(NC(=O)c3ccco3)cc2s1 | u
CCC12CN3CC(CC)(CN(C1)C3c1cccc(OC)c1O)C2=O (stereo unspecified) | 1.0%
CCOC(=O)c1ccc(N2C(=O)c3n[nH]c(-c4ccco4)c3C2c2cccc(O)c2)cc1 (stereo unspecified) | 0.4%
CCN(C(=O)Cn1cc(S(=O)(=O)Cc2ccccc2Cl)c2ccccc21)c1ccccc1 | 0.4%
O=C(c1cccc(Cl)c1)N1CCC(c2nc3c(nnn3Cc3ccc(F)cc3F)c(=O)[nH]2)CC1 | 0.1%
CC(C)(C)c1ccc(C2NC(=O)c3n[nH]c(-c4cccs4)c32)cc1 (stereo unspecified) | -8.5%

Bioassay records as filed in PubChem.

A portion of the library, so the mix of outcomes need not match the whole.
